total CFTR: compounds raising F508del-CFTR protein level – cell-based, HeLa F508del-CFTR, immunofluorescence, viability, primary screen (AID 1224863) | HeLa F508del-CFTR, immunofluorescence total CFTR, 24 h; by the record results were divided by relative cell number; some inactives read as strong as hits | calls, or highest fold increase where a dose series was run | 0.1% of 10,000 active; in the data nearly all actives have a first-pass fold increase above 1.5; a few of its hits are not listed in these tables;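 further: total CFTR protein by anti-CFTR immunofluorescence in fixed cells; first pass at 25 µM or 10 µg/mL by library and series up to twice that; 1 = untreated cells; first-pass hits also needed half or more of the cells alive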
total CFTR fold 25 µM: second read-out of total CFTR, no call of its own (marks repeat the call); fold increase; measured here: primary screen single dose 25 uM; library dosed in µM
total CFTR fold 10 ug/mL: second read-out of total CFTR, no call of its own (marks repeat the call); fold increase; measured here: primary screen 10 ug/mL
total CFTR viability 25 µM: second read-out of total CFTR, no call of its own (marks repeat the call); viability, %; measured here: primary viability 25 uM; library dosed in µM;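 0% = killed and 100% = untreated cells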
total CFTR viability 10 ug/mL: also measured in total CFTR; calls as there; viability, %; measured here: primary viability 10 ug/mL;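 0% = killed and 100% = untreated cells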
* = called active by the depositor; i = inactive; x = no result given; & = joins results of further samples. The list is partial; the hit share may differ from the screen's.

Sample of the layout:
SMILES | total CFTR | total CFTR fold 10 ug/mL | total CFTR viability 10 ug/mL | others
CNC(=O)NC(=O)COC(=O)c1sc(NC(=O)c2ccco2)cc1C | i | 1.1 | 103
O=S(=O)(c1ccc2oc(SCc3cccc4ccccc34)nc2c1)N1CCOCC1 | i | 1 | 93

The list itself, from the first entry:
SMILES | total CFTR | total CFTR fold 10 ug/mL | total CFTR viability 10 ug/mL | others
CNC(=O)NC(=O)COC(=O)c1sc(NC(=O)c2ccco2)cc1C | i | 1.1 | 103
O=S(=O)(c1ccc2oc(SCc3cccc4ccccc34)nc2c1)N1CCOCC1 | i | 1 | 93
CCc1nc2ccc(C(=O)N3CCC3)cc2nc1CC | i | 0.96 | 102
CN(Cc1ccc2ccccc2c1)Cc1nc(N)nc(N)n1 | i | 1.1 | 96
CCC(C)(C)NC(=O)C1CCC1 | i | 0.92 | 88
COc1ccc(CSc2nnc(C3CC3)n2-c2ccccc2)cc1Br | i | 0.92 | 87
O=C(Nc1ccc2c(c1)OCCO2)N1CCN(c2ncccn2)CC1 | i | 0.98 | 98
c1cc2nnnn2nc1Sc1nnc2n1CCCCC2 | i | 0.91 | 95
CSCCC(NC(=O)Nc1ccccc1)c1nnc2ccccn12 (centres undefined) | i | 1 | 105
CN(Cc1nnc2n1CCC2)S(=O)(=O)c1ccc2c(c1)NC(=O)CO2 | i | 0.98 | 92
COC(=O)c1cc(/C=C/C(=O)N(C)C2CCCCC2)oc1C | i | 0.95 | 96
CC(C)NC(=O)CN1CCCN(c2c([N+](=O)[O-])ncn2C)CC1 | i | 0.96 | 97
O=C(N1CCC(c2c[nH]c3ccccc23)CC1)C12CC3CC(CC(C3)C1)C2 | i | 1 | 84
O=C(Nc1cc(Cl)c(Cl)cc1Cl)C1CC(=O)N(CC(F)(F)F)C1 (centres undefined) | i | 0.87 | 97
O=C(N1CCCC1)N1CCN(S(=O)(=O)c2cc(Cl)ccc2Cl)CC1 | i | 0.96 | 99
CC(=O)Nc1ccc(NC(C)C(=O)Nc2ccc3c(c2)OCO3)cc1 (centres undefined) | i | 1 | 105
CS(=O)(=O)N1CCCN(Cn2ncc(Cl)c(Cl)c2=O)CC1 | i | 1 | 91
O=C1C(=O)N(C23CC4CC(CC(C4)C2)C3)C(=O)N1Cc1ccccc1 | i | 1 | 88
COc1ccc(C[C@H](N)C(=O)N[C@H]2[C@@H](O)[C@H](n3cnc4c(N(C)C)ncnc43)O[C@@H]2CO)cc1 | i | x | x | total CFTR fold 25 µM=1.1;total CFTR viability 25 µM=86
CC1CCC(NC(=O)COC(=O)c2nccnc2C(=O)N2CCOCC2)CC1 (centres undefined) | i | 1 | 88
CC(C)NCC(O)c1ccc(O)c(O)c1 (centres undefined) | i | x | x | total CFTR fold 25 µM=1&1.1&0.93;total CFTR viability 25 µM=98&76&102
O=C(CSc1nnnn1C1CC1)c1ccc(-c2ccc(Br)cc2)cc1 | i | 0.97 | 80
CSc1ncc(Cl)c(C(=O)NC2CCCCC2C)n1 (centres undefined) | i | 0.96 | 90
Cc1noc(C)c1S(=O)(=O)N1CCN(Cn2nnn(C)c2=S)CC1 | i | 1.1 | 87
O=S(=O)(c1ccccc1)N1CCN(Cc2ccc3c(c2)OCO3)CC1 | i | 0.93 | 95

Ordered by length of the SMILES (smallest number first): part of the list above.
SMILES | total CFTR | total CFTR fold 10 ug/mL | total CFTR viability 10 ug/mL | others
CN(Cc1ccc2ccccc2c1)Cc1nc(N)nc(N)n1 | i | 1.1 | 96
O=S(=O)(c1ccccc1)N1CCN(Cc2ccc3c(c2)OCO3)CC1 | i | 0.93 | 95
O=C1C(=O)N(C23CC4CC(CC(C4)C2)C3)C(=O)N1Cc1ccccc1 | i | 1 | 88

New compounds follow.
SMILES | total CFTR | total CFTR fold 10 ug/mL | total CFTR viability 10 ug/mL | others
CCn1nnnc1SCc1nc(N)c2c(C)c(C)sc2n1 | i | 1.3 | 94
CC(C)CNc1nn2cc(C(C)(C)C)nc2s1 | i | 0.9 | 82
CN(C)C(=O)Oc1ccc[n+](C)c1 | i | x | x | total CFTR fold 25 µM=1.2&0.93;total CFTR viability 25 µM=90&117
N[C@@H](CSCCCO)C(=O)O | i | x | x | total CFTR fold 25 µM=0.97;total CFTR viability 25 µM=99
Cc1c(C)c(C)c(C(=O)OCc2nc(C(C)C)no2)c(C)c1C | i | 1 | 85
Cc1ccc(/C=C/C2=Cc3c(sc(NC(=O)CN4CCOCC4)c3C#N)C(C)(C)C2)o1 | 5.6 | 1.4 | 66
Cc1ccc(Nc2nc(N)nc(CSc3nnnn3C(C)(C)C)n2)cc1 | i | 1.1 | 91
O=C(OCc1nnc(-c2ccccc2)o1)C1(S(=O)(=O)c2ccc(Cl)cc2)CCC1 | i | 0.99 | 81
O=C(CSC(F)(F)F)NC1CCCCC1 | i | 1 | 94
COc1cc2c(cc1OC)CN(Cn1cnc(-c3ccc([N+](=O)[O-])cc3)n1)CC2 | i | 0.95 | 95
CN(Cn1nc2sc3ccccc3n2c1=S)C1CCS(=O)(=O)C1 (centres undefined) | i | 1.1 | 88
CN(C)c1ccc(C=C(c2nc3ccccc3s2)c2nc3ccccc3s2)cc1[N+](=O)[O-] | i | 1 | 113
CN1CCN(S(=O)(=O)N2CCN(c3ccc([N+](=O)[O-])c4cccnc34)CC2)CC1 | i | 0.94 | 95
O=S(=O)(/C=C/c1ccc(Cl)cc1)N1CCCCC1 | i | 1.1 | 103
Cc1cc(CN2CCN(CCS(=O)c3ccccc3)CC2)on1 (centres undefined) | i | 1.1 | 90
CNS(=O)(=O)c1ccc(Nc2ccc(OCC3CCCO3)cc2)c([N+](=O)[O-])c1 (centres undefined) | i | 0.81 | 88
O=C(O)c1cc(C2CC2)nc2onc(-c3ccco3)c12 | i | 1.1 | 109
C=C1CC[C@H](O)C/C1=C/C=C1\CCCC2(C)C1CCC2C(C)CCCC(C)C (some centres undefined) | i | x | x | total CFTR fold 25 µM=1.1;total CFTR viability 25 µM=75
CC1(C(=O)Nc2nnc(C3CC3)s2)CC1(Cl)Cl (centres undefined) | i | 1 | 88
NS(=O)(=O)c1ccc2c(c1)CCN2Cc1c(Cl)cccc1Cl | i | 0.78 | 80
Cc1cc(C(C)(C)C)cc(C)c1S(=O)(=O)N1CCCN(S(C)(=O)=O)CC1 | i | 0.94 | 118
O=c1c2ccccc2cnn1CN1CCN(Cc2csc3ccccc23)CC1 | i | 1.1 | 107
O=c1c2ccccc2[nH]c(=S)n1C1CCC(O)CC1 (centres undefined) | i | 1.1 | 96
Cn1c(=O)c2c(ncn2CCC(=O)NCC2CCCCC2)n(C)c1=O | 7.2 | 3.1 | 97
Nc1ccccc1NC(=O)N1CCCC1 | i | 1.2 | 98
Continued.
SMILES | total CFTR | total CFTR fold 10 ug/mL | total CFTR viability 10 ug/mL | others
CC1CCN(CCNC(=O)C(NC(=O)C23CC4CC(CC(C4)C2)C3)C(C)C)CC1 (centres undefined) | i | 1 | 104
O=C(CN(Cc1ccco1)C1CCS(=O)(=O)C1)c1c[nH]c(C(=O)N2CCCC2)c1 (centres undefined) | i | 1 | 97
C=C(C)CN1C(=O)C(=O)N(c2ccc(OC)cc2)C1=O | i | 1.1 | 104
CN1CCN(C(=O)C2(C)CC2(Cl)Cl)c2nc3ccccc3nc21 (centres undefined) | i | 1 | 85
O=S(=O)(Cc1coc(-c2ccc(F)cc2)n1)Cc1ccc(F)cc1Cl | i | 1.2 | 75
C=C1/C(=C\C=C2/CCC[C@]3(C)[C@@H]([C@H](C)CCCC(C)(C)O)CC[C@@H]23)C[C@@H](O)C[C@@H]1O | i | x | x | total CFTR fold 25 µM=0.91;total CFTR viability 25 µM=82
Cn1c(SCC(=O)c2ccc3c(c2)OCCCO3)nnc1C(F)(F)F | i | 1.1 | 90
N#Cc1ccccc1CSc1nnc2sc3ccccc3n12 | i | 1 | 96
O=C1OC(CN2CCOCC2)CN1/N=C/c1ccc([N+](=O)[O-])o1 (centres undefined) | i | x | x | total CFTR fold 25 µM=0.97;total CFTR viability 25 µM=95
COc1ccc(S(=O)(=O)N2CCOC3CCCCC32)cc1Br (centres undefined) | i | 0.95 | 108
CC1(C)NC(=O)N(CCCSc2nnnn2C2CCCCC2)C1=O | i | 1 | 72
O=C(O)c1cc(-c2ccc(Cl)s2)on1 | i | 1.2 | 93
O=S(=O)(Nc1cc2c(cc1Cl)OCO2)c1ccc(F)c(F)c1 | i | 1 | 94
NC(=O)C1(CNS(=O)(=O)c2cc(Cl)ccc2Cl)CCOCC1 | i | 0.99 | 103
S=c1[nH]nc(N2CCCC2)n1CC1CCCO1 (centres undefined) | i | 0.91 | 98
CC1(C)[C@@H]2CC[C@@]1(C)C(=O)C2 | i | x | x | total CFTR fold 25 µM=1;total CFTR viability 25 µM=105
CC(OC(=O)c1cc2c(s1)CCC2)C(=O)Nc1sccc1C(N)=O (centres undefined) | i | 0.88 | 88
CC(C)(C)NC[C@@H](O)COc1nsnc1N1CCOCC1 | i | x | x | total CFTR fold 25 µM=1.1;total CFTR viability 25 µM=102
CNC(=O)CN(C)c1ncnc2sc3c(c12)CCC3 | i | 1.1 | 100
CCOc1ccc2nc3cc(N)ccc3c(N)c2c1 | i | x | x | total CFTR fold 25 µM=1.1;total CFTR viability 25 µM=102
Cc1ccc(C)c(S(=O)(=O)NC2CCN(C3CC3)CC2)c1 | i | 1.1 | 95
COCCOc1ccc(NC(=O)C2(C)CC2(Cl)Cl)cn1 (centres undefined) | i | 1 | 77
O=C(O)CCNC(=O)c1ccc(N=Nc2ccc(O)c(C(=O)O)c2)cc1 | i | x | x | total CFTR fold 25 µM=1.1;total CFTR viability 25 µM=83
CCCCn1c(=O)[nH]c(=O)c2c1nc(COC(=O)c1ccc([N+](=O)[O-])s1)n2CCC | i | 1.1 | 107
CC1CCCN(Cc2nc(N)nc(N(C)C)n2)C1 (centres undefined) | i | 0.98 | 90

Random excerpt: 4 records from the list
SMILES | total CFTR | total CFTR fold 10 ug/mL | total CFTR viability 10 ug/mL | others
O=C1OC(CN2CCOCC2)CN1/N=C/c1ccc([N+](=O)[O-])o1 (centres undefined) | i | x | x | total CFTR fold 25 µM=0.97;total CFTR viability 25 µM=95
CC1(C)[C@@H]2CC[C@@]1(C)C(=O)C2 | i | x | x | total CFTR fold 25 µM=1;total CFTR viability 25 µM=105
O=C(O)c1cc(-c2ccc(Cl)s2)on1 | i | 1.2 | 93
CCOc1ccc2nc3cc(N)ccc3c(N)c2c1 | i | x | x | total CFTR fold 25 µM=1.1;total CFTR viability 25 µM=102

The listing picks up, starting two compounds before the break.
SMILES | total CFTR | total CFTR fold 10 ug/mL | total CFTR viability 10 ug/mL | others
CCCCn1c(=O)[nH]c(=O)c2c1nc(COC(=O)c1ccc([N+](=O)[O-])s1)n2CCC | i | 1.1 | 107
CC1CCCN(Cc2nc(N)nc(N(C)C)n2)C1 (centres undefined) | i | 0.98 | 90
Cc1nc(CN2CCN(C(=O)c3cnccn3)CC2)cs1 | i | 1 | 83
C[C@@H](O)[C@H]1C(=O)N2C(C(=O)O)=C(SCCN=CN)C[C@H]12 | i | x | x | total CFTR fold 25 µM=1.2&0.98;total CFTR viability 25 µM=103&91
O=C1c2ccccc2C(=O)N1CCCn1ncc(Cl)c(Cl)c1=O | i | 1.3 | 78
COc1cc(/C=C/C(=O)c2ccc3c(c2)OCO3)cc(Cl)c1OC(F)F | i | 0.93 | 101
CC(SC1=NCCS1)C(=O)NC1CCCCC1 (centres undefined) | i | 0.92 | 103
CCCCn1nnnc1CSc1nnc(-c2ccc[nH]2)o1 | i | 1.1 | 96
O=C(O)C1CC(=O)N(c2ccc(S(=O)(=O)Nc3ccc4c(c3)CCC4)cc2)C1 (centres undefined) | i | 1 | 100
Cn1ncc2c(=O)n(CC(=O)NCCC34CC5CC(CC(C5)C3)C4)cnc21 | i | 1.1 | 99
Cc1nc(SCC(=O)NC(C)C23CC4CC(CC(C4)C2)C3)c2c3c(sc2n1)CCCC3 (centres undefined) | i | 1.1 | 106
C#CCNC(=O)c1nccnc1N | i | 1.1 | 104
COc1ccccc1-c1noc(Cn2cnc(C#N)n2)n1 | i | 1.1 | 94
NCCSc1nnc(-c2ccc(Br)cc2)n1CCc1ccccc1 | i | 0.92 | 102
CNCC[C@@H](Oc1ccccc1)c1ccccc1 | i | x | x | total CFTR fold 25 µM=1.1;total CFTR viability 25 µM=114
Oc1cccc(O)c1 | i | x | x | total CFTR fold 25 µM=0.95;total CFTR viability 25 µM=104
CCOC(=O)C1=C(COC(=O)c2sc3nc4n(c(=O)c3c2C)CCCCC4)NC(=O)NC1CC (centres undefined) | i | 0.96 | 91
CCOC(=O)C1=C(COC(=O)c2ccc(C(F)(F)F)cn2)NC(=O)NC1C (centres undefined) | i | 0.97 | 99
Cc1sc(NC2CCCCC2)nc1-c1ccc(F)c(F)c1 | i | 1.3 | 115
NC1CCN(c2c(F)cc3c(=O)c(C(=O)O)cn(C4CC4)c3c2Cl)C1 (centres undefined) | i | x | x | total CFTR fold 25 µM=1&1.1;total CFTR viability 25 µM=98&94
CC(C)Cn1c(SCc2cc(Br)cc3c2OC(c2ccccc2)OC3)nc2ccccc2c1=O (centres undefined) | i | 0.95 | 108
Cc1cc(Cl)c(C)c(S(=O)(=O)NC2CCN(S(C)(=O)=O)CC2)c1Cl | i | 0.94 | 80
Nc1nc(N)nc(CN2CCCC2c2ccc3c(c2)OCCO3)n1 (centres undefined) | i | 1.1 | 99

Screening results from PubChem.
